SARS PLpro yeast: qHTS of Yeast-based Assay for SARS-CoV PLP; Potency, µM (titrated, usually from 32.9 µM), for inactives: at the highest dose activity, positive = growth rescue; S. cerevisiae expressing SARS-CoV PLpro, growth rescue; control for the full effect not named in the record; hit rate 0.19% among 330,000; active means well fitted rising curve with a large enough effect; inconclusive means small, poorly fitted or top-dose-only effect; inactive means no such curve, though single readings can be large or run the other way; also: 0% is about no effect; nearly all actives have a fitted effect of over 55% in size; growth read by luminescence after 48 h
RE007 growth inh: qHTS Assay for Inhibitors of the HIV-1 protein Vpr. S. pombe RE007 Vpr strain, BacTiter-Glo ATP luminescence, 24 h; control for the full effect not named in the record. Potency, µM (top dose mostly 92.2 µM), inactives show at the top dose activity change, negative = less growth. hit rate 0.21% among 360,000; active = well fitted falling curve with a large enough effect; inconclusive = small, poorly fitted or top-dose-only effect; inactive = no such curve, though single readings can be large or run the other way;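 also: % is scaled to controls: 0 for no effect and ±100 for the full control effect; nearly all actives have a fitted effect of over 50% in size; the assay follows cell death caused by Vpr and the record does not say whether a fall means rescue or toxicity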
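Fission yeast RE007 carrying one integrated HIV-1 vpr copy, seeded at OD 0.01 in PMG+AL medium with 23 nL pinned compound. Grown 24 h at 30 degrees; viability read by BacTiter-Glo luminescence after 5 min.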
Lassa entry inh: qHTS for Inhibitors of binding or entry into cells for Lassa Virus. Lassa virus pseudotype entry inhibition, cell reporter; control for the full effect not named in the record. Potency, µM (series often up to 37.9 µM), without a hit: at the top dose activity change, negative = inhibition, most hits filed as inhibitors. hit rate 1.2% among 300,000; active means well fitted inhibition curve with a large enough effect; inconclusive means small, poorly fitted or top-dose-only effect, or effect the other way; inactive means flat fitted curve, though single readings scatter; tested in HEK293 cells; also: % is scaled to controls: 0 for no effect and ±100 for the full control effect; nearly all actives have a fitted effect of over 50% in size; luciferase read-out
Cruzain inh Det: qHTS Assay for Promiscuous and Specific Inhibitors of Cruzain (with detergent) | Cruzipain (Trypanosoma cruzi), P25779 | purified cruzain, Z-FR-AMC fluorescence, 0.01% Triton | Potency, µM, inactives show max response, negative = inhibition, hits mostly inhibitors | hit rate 0.43% among 200,000 | AID 1478, 2009;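 also: plate controls were neutral wells for no effect and buffer without enzyme for full effect; nearly all actives have a fitted effect of over 40% in size; top concentration of the series not given in the record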
Target sequence (P25779 123-467 limits assumed): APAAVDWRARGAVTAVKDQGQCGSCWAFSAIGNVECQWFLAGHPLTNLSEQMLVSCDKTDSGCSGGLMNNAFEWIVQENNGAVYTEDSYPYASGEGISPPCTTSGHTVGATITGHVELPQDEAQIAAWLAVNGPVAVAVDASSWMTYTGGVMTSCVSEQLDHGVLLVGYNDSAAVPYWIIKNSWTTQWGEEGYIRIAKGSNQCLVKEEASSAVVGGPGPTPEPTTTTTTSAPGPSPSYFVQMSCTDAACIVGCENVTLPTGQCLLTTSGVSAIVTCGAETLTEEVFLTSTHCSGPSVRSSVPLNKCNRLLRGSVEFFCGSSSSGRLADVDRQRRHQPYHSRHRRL
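Enzyme 1.5 nM, Z-FR-AMC 2 uM, NaOAc 100 mM pH 5.5, DTT 5 mM, Triton X-100 0.01%; 15 min RT compound preincubation; kinetic ex360/em450, 60 s delta.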
Marburg entry inh: qHTS for inhibitors of binding or entry into cells for Marburg Virus | Marburg virus pseudotyped entry inhibition, cell reporter; control for the full effect not named in the record; about a third of the inactives were read at about 46 µM | Potency, µM (top dose mostly 37.8 µM), inactives show top-dose activity change, negative = inhibition, most hits filed as inhibitors | hit rate 1.8% among 300,000; active = well fitted inhibition curve with a large enough effect; inconclusive = small, poorly fitted or top-dose-only effect, or effect the other way; inactive = flat fitted curve, though single readings scatter; tested in HEK293 cells; about a fifth of its hits are not listed in these tables; also: % is scaled to controls: 0 for no effect and ±100 for the full control effect; luciferase read-out
NS1 function inh: qHTS Assay for Inhibitors of Influenza NS1 Protein Function. S. cerevisiae slowed by influenza A NS1, growth recovery by OD600. AID 2326, 2010. Potency, µM (series often up to 46.1 µM), for inactives: top-dose activity, positive = more growth. hit rate 0.4% among 270,000; active means well fitted rising curve with a large enough effect; inconclusive means small, poorly fitted or top-dose-only effect; inactive means no such curve, though single readings can be large or run the other way; also: nearly all actives have a fitted effect of over 50% in size
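S. cerevisiae expressing influenza A NS1, grown in glucose, washed, then diluted 1:100 into pH 6.0 -URA galactose medium with 23 nl compound. Growth recovery read as OD600; NS1-free strain serves as control.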
StopGo reporter: High Throughput Screening for Foot and Mouth Disease Virus Antivirals. human cells with a luciferase reporter of 2A StopGo recoding; control for the full effect not named in the record. hit rate 1.2% among 410,000. Potency, µM (series often up to 57.9 µM), inactives show top-dose signal change, negative = less light; active = well fitted falling curve with a large enough effect; inconclusive = small, poorly fitted or top-dose-only effect; inactive = no such curve, though single readings can be large or run the other way; tested in HEK293T cells; also: % is scaled to controls: 0 for no effect and ±100 for the full control effect; nearly all actives have a fitted effect of over 45% in size; luciferase light after 4 h
Cruzain noTriton: qHTS Assay for Promiscuous and Specific Inhibitors of Cruzain (without detergent); Cruzipain (Trypanosoma cruzi), P25779; purified cruzain, Z-FR-AMC fluorescence, no detergent; Potency, µM, inactives show max response, negative = inhibition, hits mostly inhibitors; AID 1476, 2009; hit rate 2.3% among 200,000;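 also: plate controls were enzyme without inhibitor for no effect and buffer without enzyme for full effect; nearly all actives have a fitted effect of over 40% in size; top concentration of the series not given in the record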
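Purified cruzain at 1.5 nM, pre-incubated 15 min with compound at room temperature in 100 mM sodium acetate pH 5.5, 5 mM DTT, 0.00005% Triton X-100. Reaction started with 2 uM Z-FR-AMC; AMC fluorescence increase over 60 s gives rate.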
Starred values were filed as active, the others as inactive; ? = inconclusive; · = no result given; [ ] = dose if it differs, or a comment. Unless noted, calls follow the shape of the dose curve; as a rule, active = well fitted curve in the direction sought with a large enough effect; inconclusive = small, poorly fitted or top-dose-only effect, or another doubt; inactive = no such curve, though single readings can be large; an effect the other way counts as inactive or inconclusive. Potency is read from the fitted curve at half-maximal effect.

Every second line gives: SARS PLpro yeast	RE007 growth inh	Lassa entry inh	Cruzain inh Det	Marburg entry inh	NS1 function inh	StopGo reporter	Cruzain noTriton
1: COC(=O)c1c(C)sc(-c2c(-c3ccc(F)cc3)[nH]c3[nH]c(=O)[nH]c(=O)c23)c1O
  ·	·	?	-8.7%	?	·	-8%	-6%
2: O=C(CSc1nnc(-c2ccc3c(c2)OCO3)n1-c1ccccc1)c1ccc(Cl)cc1
  -5%	0%	3%	-3.9%	-6%	13%	-1%	-26%
3: CS(=O)(=O)c1ccc(C(=O)OC2CCOC2=O)cc1[N+](=O)[O-] (stereo not given)
  2%	1%	4%[46.1 µM]	·	-4%[46.1 µM]	0%	5%	·
4: FC(F)(F)c1ccc(CN2CCN(Cc3ccco3)CC2)cc1
  ?	1%	·	·	·	24%	-1%	·
5: Nc1c(NC=O)c(=O)n(Cc2ccccc2)c(=O)n1Cc1ccccc1
  ·	5%	1%	·	-10%	·	-11%	·
6: CC1Cc2ccccc2N1C(=O)CN1CCCCC1 (stereo not given)
  0%	-7%	21%[46.1 µM]	·	-8%[46.1 µM]	0%	3%	·
7: O=C(N/N=C/c1cn(-c2ccccc2)nc1-c1cccs1)c1ccccc1F
  -25%	19%	?	-7.5%	?	20%	-11%	32µM*
8: O=C(CSc1nnc(C2CC2)n1C1CC1)c1ccc(Br)s1
  0%	19%	4%	·	0%	·	113%[activator]	·
9: N/C(=N\S(=O)(=O)c1cc(C(F)(F)F)cc(C(F)(F)F)c1)c1ccccc1
  2%	12%	·	·	·	9%	51%[activator]	·
10: CCOc1ccc(C(C)=O)cc1COc1ccc(-c2nnco2)cc1
  2%	-3%	-5%[46.1 µM]	·	-5%[46.1 µM]	-4%	-7%	·
11: CCc1ccc(N(C(=O)Cn2nnc(-c3ccccc3)n2)C(C(=O)NC2CCCCC2)c2ccccn2)cc1 (stereo not given)
  10%	-3%	8%	-4.7%	?	0%	-22%	19%
12: CCOC(=O)N1CCN(C(=O)CN(c2ccccc2)S(C)(=O)=O)CC1
  0%	-21%	-3%	·	24%[46.1 µM]	0%	-8%	·
13: COc1ccc(C(=O)c2ccc(C)cc2)c(OC)c1OC
  ·	?	?	·	?	·	5%	·
14: O=C1/C(=C/c2ccc([N+](=O)[O-])cc2)CCC1C1CCCC1 (stereo not given)
  -4%	-21%	?	·	?	-4%	25%	·
15: O=[N+]([O-])c1cccc2c(S(=O)(=O)N3CCCCC3)cccc12
  -13%	-10%	1%[46.1 µM]	·	?	-35%	-12%	·
16: Cc1c(C(=O)N2CCC[C@H]2CO)oc2c(F)cccc12
  3%	-1%	·	·	·	9%	53%[activator]	·
17: Cc1c(NC(=O)c2cc(=O)c3ccccc3o2)c(=O)n(-c2ccccc2)n1C
  ·	·	16%[46.1 µM]	-3.4%	12%[46.1 µM]	·	-18%	16%
18: CCOCCCNC(=O)c1cc2c(=O)n3cccc(C)c3nc2n1C
  3%	9%	·	-4.6%	·	-50%	0%	8%
19: COc1cccc(C2CN(c3ccc(F)cc3F)N=C2c2cccs2)c1OC (stereo not given)
  6%	5%	·	-4.4%	·	1%	-24%	?
20: Cc1ccc(NC(=O)CC2Nc3cccc4cccc(c34)NC2=O)cc1 (stereo not given)
  ·	·	-11%[46.1 µM]	-11%	-12%[46.1 µM]	·	-13%	-19%

The list goes on.
Every second line gives: SARS PLpro yeast	RE007 growth inh	Lassa entry inh	Cruzain inh Det	Marburg entry inh	NS1 function inh	StopGo reporter	Cruzain noTriton
21: Cc1ccc(C(=O)NCC(=O)N2CCN(c3ncccn3)CC2)s1
  -28%	2%	17%	0.1%	-3%	5%	40%[activator]	-4%
22: Cc1ccc2cc3cc(C(=O)NCCCN4CCc5ccccc5C4)oc3nc2c1
  -6%	?	?	-18%	-35%	-16%	-24%	-3%
23: CCn1ccnc1CN(C)Cc1cn(C)nc1-c1ccccc1F
  0%	1%	1%[46.1 µM]	·	-17%[46.1 µM]	-2%	-16%	·
24: O=C(Nc1ccc(Cl)c(Cl)c1)OCc1cccnc1
  -33%	-16%	?	-1.3%	-18%	-69%	-19%	-6%
25: O=C(Nc1c2c(nn1-c1ccc(F)cc1)CS(=O)(=O)C2)C1CCCC1
  -3%	2%	·	·	·	-3%	-3%	·
26: CC(=O)C1C(c2cn(-c3ccccc3)nc2-c2cccs2)NC(=O)NC1(O)C(F)(F)F (stereo not given)
  -1%	13%	0%	-2.5%	-3%	-4%	-10%	-5%
27: CC(=O)Nc1cccc(NC(=O)C(=O)c2cn(CC(=O)N3CCCCC3)c3ccccc23)c1
  -2%	1%	?	·	?	·	14%	·
28: Cc1cc(S(=O)(=O)N2CCN(C(=O)c3ccco3)CC2)ccc1F
  1%	2%	1%	·	?	13%	-20%	·
29: CCNC(=O)NC(=O)CSc1ccc(S(=O)(=O)N2CCCCC2)cn1
  3%	-6%	0%	·	0%	·	-5%	·
30: COc1cc(NC(=O)c2ccccc2)c(OC)cc1NC(=O)Cc1ccc(F)cc1
  1%	5%	?	·	-24%	20%	-29%	·
31: C#CCNCCS(=O)(=O)N(Cc1ccc(Br)cc1)[C@@H](CC(C)C)C(=O)O
  -7%	1%	·	·	-4%	·	-24%	·
32: CC(=O)c1cccc(Nc2ncnc3c2cnn3C)c1
  ·	·	?	1.3%	·	·	-9%	-19%
33: COc1cccc(NC(=O)C2CCCN2C(=O)Nc2ccccc2F)c1 (stereo not given)
  -1%	0%	15%	2.3%	5%	-15%	·	-1%
34: CC(Oc1ccc(Cl)cc1Cl)C(=O)NNC(=O)c1cccnc1 (stereo not given)
  -3%	0%	·	·	·	-5%	0%	·
35: COc1cc(OC)nc(/N=C/N(C)C)n1
  1%	14%	4%	·	10%[46.1 µM]	9%	3%	·
36: COc1ccc(/C=C/C(=O)Oc2ccc(C)cc2)cc1
  -1%	-15%	·	·	·	-19%	9%	·
37: CC(C)CCNC(=O)c1cccc(Nc2nc3ccccc3n3nnnc23)c1
  ·	·	-7%[46.1 µM]	3.0%	-9%[46.1 µM]	·	-22%	3%
38: Cc1nc(Cl)sc1C(=O)Nc1ccc(C(F)(F)F)cc1
  -3%	-6%	·	·	·	-46%	-15%	·
39: O=[N+]([O-])c1ccccc1S(=O)(=O)NC1CC2CCC1C2 (stereo not given)
  -6%	1%	15%[46.1 µM]	·	12%[46.1 µM]	7%	39%[activator]	·
40: COc1ccccc1N(CC(=O)N1CCOCC1)S(C)(=O)=O
  8%	1%	-13%	·	-4%	?	-5%	·

Two compounds from above, limited to Lassa entry inh, SARS PLpro yeast and NS1 function inh.
No. | SMILES | Lassa entry inh | SARS PLpro yeast | NS1 function inh
23 | CCn1ccnc1CN(C)Cc1cn(C)nc1-c1ccccc1F | 1%[46.1 µM] | 0% | -2%
34 | CC(Oc1ccc(Cl)cc1Cl)C(=O)NNC(=O)c1cccnc1 (stereo not given) | · | -3% | -5%

Continuation:
Every second line gives: SARS PLpro yeast	RE007 growth inh	Lassa entry inh	Cruzain inh Det	Marburg entry inh	NS1 function inh	StopGo reporter	Cruzain noTriton
41: CC1CC1c1ccc(/C=C(\C#N)C(=O)Nc2ccc(Cl)cc2)o1 (stereo not given)
  6%	-11%	?	-5.8%	?	-5%	-8%	1%
42: Cc1ccc(-n2c(SCC(=O)N3CCCc4ccccc43)nnc2-c2cccnc2)c(C)c1
  -13%	-8%	8%	-1.1%	-17%	-5%	-19%	0%
43: Cc1ccc(NC(=S)N2CCC(NC(=O)c3cccc(F)c3)CC2)cc1
  2%	9%	-2%	·	-22%[46.1 µM]	-12%	-12%	·
44: CC/C(=N\NC(N)=O)c1ccc(OC(F)F)cc1
  0%	-6%	-12%[46.1 µM]	·	4%[46.1 µM]	5%	-12%	·
45: Cc1cccnc1NC(=S)NC(=O)c1oc2ccccc2c1C
  -1%	-3%	7%[46.1 µM]	·	?	-18%	47%[activator]	·
46: COc1ccc(CN2CCNC(=O)C2CC(=O)NCC2CCOCC2)cc1C (stereo not given)
  -3%	-2%	·	·	·	1%	-2%	·
47: Cc1[nH]c2ccccc2c1/C=N/Nc1nc2ccccc2[nH]1
  -10%	-6%	?	·	?	-5%	0%	·
48: O=S(=O)(Cc1ccccc1)N1CCN(C2Cc3ccccc3C2)CC1
  12%	1%	?	1.9%	-14%	-13%	20%	0%
49: COc1cc([N+](=O)[O-])cc(/C=N/NC(=O)c2ccc(NC(=O)c3ccc(C)cc3)cc2)c1O
  0%	-13%	?	·	1.1µM*	6%	?	·
50: O=C(O)CSCC(=O)Nc1ccc(-c2nc3ccccc3s2)cc1
  -1%	-10%	-20%[46.1 µM]	·	?	1%	8%	·
51: O=C(N/N=C/c1ccc2c(c1)OCO2)C(=O)Nc1cccc(Cl)c1
  3%	10%	22%[46.1 µM]	·	8%[46.1 µM]	7%	45%[activator]	·
52: O=C1CN(C(=O)CSc2nnnn2-c2ccc(Cl)cc2)c2ccccc2N1
  -1%	4%	-12%	1.0%	?	-8%	?	-8%
53: C=CCn1c(SCC(=O)Nc2ccc3c(c2)OCCO3)nnc1-c1ccco1
  3%	0%	-16%	0.9%	-3%	-21%	-4%	5%
54: CCCn1nc(C(=O)NNC(=O)CCCOc2ccc(C)cc2)c2ccccc2c1=O
  ?	4%	15%	·	3%	1%	-18%	·
55: CCN(c1cccc(C)c1)S(=O)(=O)c1cnc[nH]1
  -3%	-5%	19%	9.6%	10%	0%	·	-1%
56: O=C(CO/N=C/c1ccc(Cl)cc1Cl)NNC(=O)c1ccc(Cl)cc1Cl
  3%	-18%	·	·	·	2%	-16%	·
57: O=C(O)CCN=CC1=C(O)CC(c2ccccc2)CC1=O (stereo not given)
  6%	-30%	0%	·	2%[46.1 µM]	12%	-6%	·
58: COc1ccc(OC)c(NC(=O)COC(=O)CSc2ccc(Cl)cc2)c1
  -22%	-10%	8%	-8.3%	?	-30%	11%	11%

Assay outcomes: PubChem BioAssay, National Center for Advancing Translational Sciences (NCATS)

This is a random part of the collection. Share with any hit: about 4.7%.
